MT1-MMP act inh: MT1-MMP (human) activation inhibition; HT1080 RFP-PRO-GFP cells, GFP/RFP ratio fluorescence, overnight; percent of plate control window, DMSO zero; AID 651647; GFP/RFP ratio change, % at 20 µM; 0.061% of 360,000 active;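 active means GFP/RFP ratio change of at least 30% with cell ATP level not reduced by more than half and red fluorescence within 50% of control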; further: strong numbers were not always called active
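Assay system: HT1080 RFP-PRO-GFP cells | Dosing: 20 µM single dose, 1% DMSO | Incubation: Cells overnight before dosing, compound overnight, 37 °C, 5% CO2 | Evaluation: GFP/RFP fluorescence ratio | Control set: DMSO-only wells and HT1080 RFP-L50D-GFP cell wells as references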
CSC inhib: blocks cancer stem cells. cancer stem cell-like cells viability, luminescence. inhibition, % at 7.5 µM. 1.1% of 300,000 active. AID 2717;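 active means mean at 75% or more and at least half the replicates too; inconclusive means mean and replicates disagree; tested in HMLE shEcad cells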;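 further: 0% = median of negative and 100% = median of positive control wells; the first replicate is given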
UUG fidelity: yeast start codon fidelity modulation; 0.13% of 350,000 active; AID 602363; activity score, % at 18.7 µM; S. cerevisiae UUG-firefly luciferase reporter, luminescence/redox ratio;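 active means replicate mean at a twofold rise or more, about +100% in these data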;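 further: firefly luciferase made from a UUG start codon reports start codon fidelity; reporter light over untreated wells divided by growth signal over untreated wells; some hits fall short of that in this replicate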
Rce1 inh: yeast Ras-converting enzyme inhibition; calls only; 0.27% of 290,000 active; yeast membranes, quenched prenylated peptide cleavage fluorescence; Q03530; AID 2563;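 active means fall in fluorescence gain of 50% or more versus controls, with final raw signal at or below 3038400; inconclusive means same 50% fall but final raw signal above 3038400; inactive means fall in fluorescence gain under 50%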;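 further: plate controls were neutral control wells for no effect and wells lacking membranes for full effect; tested at 10 µM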
Target sequence (Q03530 whole entry, looked up): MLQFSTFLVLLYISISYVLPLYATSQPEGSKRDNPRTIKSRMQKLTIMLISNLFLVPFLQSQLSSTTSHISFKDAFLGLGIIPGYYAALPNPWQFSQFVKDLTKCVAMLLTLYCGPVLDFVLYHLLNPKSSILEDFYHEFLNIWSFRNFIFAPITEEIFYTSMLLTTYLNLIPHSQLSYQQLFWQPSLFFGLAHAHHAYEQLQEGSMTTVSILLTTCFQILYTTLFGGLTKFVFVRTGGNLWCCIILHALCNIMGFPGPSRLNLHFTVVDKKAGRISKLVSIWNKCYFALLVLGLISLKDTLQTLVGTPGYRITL
PABP FP inh: PABP-poly(A) binding inhibition | P11940 | PABP-poly(A) RNA binding, fluorescence polarization | inhibition, % at 35 µM | 1% of 290,000 active;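 active means 50% or more with normal probe brightness, or confirmed in later tests; inconclusive means above 50% with abnormal brightness, or retests that disagree; inactive means below 50% or failed in later tests; about a fifth of its hits are not listed in these tables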;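 further: calls also rest on retests at 20 µM and on dose response follow-up; controls were probe without protein and protein plus probe with vehicle; some compounds called inactive have numbers as strong as hits; many hits fall short of the cut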
eIF4H FP inh: inhibitors of RNA binding by human eIF4H. Q15056. eIF4H fluorescence polarization binding assay. inhibition, % at 35 µM. 0.94% of 290,000 active;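 active means 50% or more with normal probe brightness, or confirmed in later tests; inconclusive means above 50% with abnormal brightness, or retests that disagree; inactive means below 50% or failed in later tests; about a fifth of its hits are not listed in these tables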;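 further: calls also rest on retests at 20 µM and on dose response follow-up; 0% = protein and probe with vehicle and 100% = probe without protein; strong numbers were not always called active; many hits fall short of the cut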
Env fusion inh: blocks HIV Env-driven cell-cell fusion | 1.1% of 360,000 active | inhibition, % at 12.3 µM | HeLa-JRFL Env/CEM21 cell fusion, luciferase;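 active means mean replicate inhibition score of at least 50 and every replicate individually at or above 50; inconclusive means only one of the two criteria met; inactive means mean below 50 and not all replicates reaching 50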;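 further: 0% = plate neutral controls and 100% = maraviroc near 300 nM; one replicate is shown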
eIF4H FP inh retest: second read-out of eIF4H FP inh, no call of its own (marks repeat the call); inhibition, %; compound at 20 µM; confirmation average;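 mean of two retest wells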
PABP FP inh retest: second read-out of PABP FP inh, no call of its own (marks repeat the call); inhibition, %; compound at 20 µM; confirmation repeats;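 mean of two retest wells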
MT1-MMP act inh RFP: recorded beside MT1-MMP act inh, whose call it bears; RFP signal change, %; measured here: RFP expression control read;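 0 = vehicle wells; hits needed this value within 50% of zero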
Numbers without * were called inactive; i = inactive; ? = inconclusive; . = not tested or not shown; + = active, no number. An excerpt; the hit share may differ from the screen's.

SMILES	MT1-MMP act inh	MT1-MMP act inh RFP	CSC inhib	UUG fidelity	Rce1 inh	PABP FP inh	eIF4H FP inh	Env fusion inh	others
Cc1ccccc1S(=O)(=O)Cc1ccc(C(=O)NC2CC2)o1	3.4	2.6	-4.4	-5.4	i	0.7	-11.5	-12.3
CCNC(=S)/C(=C(/[O-])c1ccc([N+](=O)[O-])cc1)[n+]1ccccc1	1.5	2.5	-9.4	.	.	1.8	-4.5	5.3
CCOc1ccccc1OCCN1CCC(Cc2ccccc2)CC1	2.5	0.3	5.3	12.0	i	-7.7	0.6	-19.7
COc1ccc(C(=O)CSc2nnc(-c3cc4ccccc4cc3O)n2Cc2ccco2)cc1	5.1	2.0	-7.4	-14.2	i	-3.9	5.9	-158.2
Cc1cc(/C=C(\C#N)C(=O)NC2CCCCCC2)c(C)[nH]1	0.5	2.8	17.8	.	i	-1.0	17.1	-17.9
COCCN(C(=O)c1snc(C(N)=O)c1N)C(C(=O)NC1CCCCC1)c1ccc(N(C)C)cc1 (configuration not stated)	-0.5	1.5	-10.8	12.3	i	2.2	-10.4	-63.2
CCCCNC(=O)N1CCc2ccccc2C1	2.0	3.3	-6.0	.	i	6.3	10.4	10.3
O=S(=O)(Nc1ccccc1N1CCCCC1)c1cccs1	-1.6	0.3	-4.8	2.1	i	-3.7	1.3	9.8
COCCCNC(=O)C(=O)N/N=C/c1ccc(OCC(=O)Nc2cccc(Cl)c2C)c(OC)c1	1.7	6.1	-6.4	12.4	.	-10.5	-1.7	.
Cc1ccc([N+](=O)[O-])cc1NC(=O)CN1CCCCC1	-0.2	5.2	8.2	-20.5	i	-12.1	1.7	.
O=C(Nc1ccc(Cl)cc1)N1CCC(CO)(Cc2ccccc2)CC1	1.3	-3.4	20.2	-4.0	i	-8.8	-8.3	6.9
Cc1cc(OCC(=O)OCC(=O)c2ccc[nH]2)ccc1Cl	6.0	0.4	.	-14.7	.	.	.	-10.3
COc1cccc(C2=NOC(C(=O)NCc3cccs3)C2)c1 (configuration not stated)	5.5	1.3	45.9	-11.5	i	-2.1	-4.2	-197.5
CC(C)[C@H](NC(=O)OCc1ccccc1)C(=O)OCC(=O)Nc1c(F)cccc1F	3.4	2.0	-7.7	1.2	+	33.6	5.0	-18.9
CCS(=O)(=O)CCSc1nc(C)cc(C)n1	2.6	1.3	-18.5	6.7	i	11.4	2.1	.
N/C(Cc1ccc([N+](=O)[O-])cc1)=N\OC(=O)COc1ccc2ccccc2c1	0.2	-2.8	1.1	-17.4	i	8.0	-2.0	.
Cc1ccc(S(=O)(=O)N(C)c2ccc(OC(=O)CN3C(=O)NC4(CCCC4)C3=O)cc2)cc1	-2.4	-4.9	-5.7	-11.9	i	.	.	-5.6
COc1cc(CN2C(=S)NC(C)(C)CC2(C)O)cc(OC)c1 (configuration not stated)	-2.4	-4.9	-0.6	-21.6	i	-2.6	1.5	-0.4
COc1cc(S(=O)(=O)N(Cc2ccc(C)cc2)Cc2ccco2)ccc1-n1cnnn1	-6.0	-14.0	1.4	-15.5	i	-9.6	-7.5	.
O=C(c1cc([N+](=O)[O-])cc([N+](=O)[O-])c1)N1CCN(C(=O)c2ccco2)CC1	0.6	0.0	-1.9	.	i	4.8	-5.2	-3.0
CCOC(=O)C1=C(CC)Nc2ccccc2N=C1NC(=O)Nc1ccccc1OC	3.8	7.2	-4.4	13.6	i	-3.5	0.2	-31.3
COc1ccccc1-c1nnc2n1N=C(C)CS2	-0.9	0.8	9.0	-9.6	i	9.6	-2.3	-56.0
COc1cc(NC(=O)c2ccccc2)c(OC)cc1NC(=O)CN1CCN(c2ccccn2)CC1	5.1	0.5	5.9	-8.4	i	1.8	-5.5	.
Cc1cccc(C(=O)NCC(=O)N2CCN(S(=O)(=O)/C=C/c3ccccc3)CC2)c1	-0.8	4.4	.	7.8	.	.	.	13.8
N#Cc1nc(Cc2ccccc2)oc1N1CCC(Cc2ccccc2)CC1	-4.1	-7.5	21.2	-23.0	i	3.3	-4.2	.
Cc1ccc(N2CC(=O)N(c3ccc(C)cc3)CC2=O)cc1	1.7	-1.5	-17.6	.	i	0.3	3.1	-4.3
Cc1ccc(C(=O)NCC(=O)OCC(=O)Nc2ccc(Cl)cc2C(F)(F)F)cc1C	-4.9	5.6	7.7	.	i	1.3	-9.8	.
c1nc(NCc2ccc3c(c2)OCO3)c2cc(-c3ccc4c(c3)OCCO4)ccc2n1	1.6	-13.5	.	-14.5	.	.	.	50.2
CCCCn1c(CNC(=O)C23CC4CC(CC(C4)C2)C3)nnc1SCC(=O)Nc1nnc(C)s1	1.8	1.5	11.5	-13.2	i	-0.3	-3.2	-4.1
COc1ccccc1NS(=O)(=O)c1cccc(C(=O)N2CCCC2)c1	-1.7	0.9	-33.8	-11.0	.	.	.	.
COc1cccc2c1SCc1ccccc1C2CC(N)=O (configuration not stated)	-1.0	3.1	-7.6	-8.0	i	.	.	9.7
COc1ccc(NC(=O)c2ccco2)c(NC(=O)c2ccc([N+](=O)[O-])cc2)c1	1.6	4.0	15.5	-31.9	i	7.6	1.9	-4.8
Cc1cc(C)n(CCNC(=O)C2CCC(=O)N(Cc3ccc(Cl)cc3)C2)n1 (configuration not stated)	2.0	-1.7	-9.6	15.8	i	-3.2	-12.7	0.7
O=C(N/N=C\c1ccc[nH]1)c1cncc(Br)c1	-7.9	1.7	-5.7	-18.5	i	10.1	-6.3	-13.7
CCOc1ccccc1C(=O)Nc1cc(OC)ccc1OC	3.1	-1.8	-6.1	-8.9	i	2.7	1.8	-73.2
CCOC(=O)Cc1nnc(NC(=O)C(CC)Sc2nc(C)cc(C)n2)s1 (configuration not stated)	-0.4	3.4	-2.1	-11.3	i	2.7	2.0	14.8
O=C(c1ccco1)N1CCN(C2CC(=O)N(c3ccc(C(F)(F)F)cc3)C2=O)CC1 (configuration not stated)	2.0	7.3	9.7	-13.2	i	8.6	-0.2	5.4
C=CCN(CC=C)CCOc1cccc2ccccc12	2.8	7.5	-11.5	-12.5	i	-3.7	-5.4	.
CC(C)N(CCCNC(=O)c1ccc(N2CCCC2=O)cc1)Cc1ccccc1	2.3	4.1	-1.6	.	i	3.7	-1.9	-64.0
CCn1c(C)nc2cc(C(=O)NNS(=O)(=O)c3ccc(C)cc3C)ccc21	4.2	4.3	-5.1	-8.2	i	6.0	-1.1	-3.1
COc1ccc(CNc2ccncc2)c(OC)c1OC	1.7	1.7	.	-1.0	.	.	.	4.2
CCc1c(C)sc(NC(=O)CSc2nc3c(c(C(F)(F)F)n2)CCc2ccccc2-3)c1C#N	-1.8	-3.7	8.1	-11.9	.	3.5	-9.1	-73.8
CC(=O)N1CCN(c2ccc(NC(=O)c3ccc(C)c([N+](=O)[O-])c3)cc2)CC1	2.5	2.6	-9.5	-3.8	i	-2.4	9.7	5.7
Cc1ccc(C(=O)NCC(=O)OCC(=O)NCC(F)(F)F)cc1	-1.0	2.4	-2.2	.	i	0.3	8.9	-7.1
COc1ccccc1NC(=O)N1CCCC(c2nc3c(nnn3Cc3ccc(C)cc3)c(=O)[nH]2)C1 (configuration not stated)	4.6	-0.4	.	11.0	i	3.9	-5.3	.
Cc1ccc(CNCC2CCCO2)s1 (configuration not stated)	4.2	-1.4	-1.4	1.4	i	1.3	-1.5	12.4
O=C(Oc1ccc(Br)cc1)C1CC(=O)N(c2ccc(F)cc2)C1 (configuration not stated)	-2.1	-0.1	.	-12.1	i	5.4	-5.3	.
COc1ccc2[nH]c(C)c(CN3CCCCC3)c(=O)c2c1	5.1	1.5	-13.3	.	i	7.8	-5.4	.
CCCN(CCC)CC(=O)N1CC(=O)Nc2ccccc21	1.4	2.4	4.4	1.0	i	8.2	-5.5	-11.5
CCOc1ccc(CC(=O)Nc2c(C(N)=O)oc3ccc(Br)cc23)cc1OCC	4.9	0.2	-5.1	-17.7	i	-4.7	-0.3	20.6

The list goes on:
SMILES	MT1-MMP act inh	MT1-MMP act inh RFP	CSC inhib	UUG fidelity	Rce1 inh	PABP FP inh	eIF4H FP inh	Env fusion inh	others
Cn1c(SCC(=O)NCc2ccc3c(c2)OCO3)nnc1-c1cc2ccccc2cc1O	2.7	-1.4	-1.2	-15.3	i	-13.7	4.4	33.8
Cc1sc(NC(=S)NC(=O)C2CCCCC2)c(C(N)=O)c1C	-1.9	5.3	-4.8	.	i	6.0	96.4	-80.6	eIF4H FP inh retest=1.3;PABP FP inh retest=2.1
Cc1nn(Cc2ccc(C(=O)NN)o2)c(C)c1Cl	0.2	-5.4	-7.7	.	i	4.3	4.4	-24.3
Cc1nn(C)c(Cl)c1CN1CCN(CC(C)C)C(CCO)C1 (configuration not stated)	13.6	7.1	-7.2	-0.6	i	0.6	6.6	4.6
O=C1c2ccccc2C(Nc2ccccc2)N1c1ccc(Cl)cn1 (configuration not stated)	-1.5	-7.6	.	-1.0	.	0.5	-0.6	3.8
CCN1C(=O)/C(=C\c2ccc(-c3ccc([N+](=O)[O-])cc3OC)o2)SC1=Nc1cccc(C(=O)O)c1	-20.4	8.2	.	.	i	?	?	6.0
Nc1nnc(Cc2ccc(F)cc2)s1	12.9	4.1	-0.6	.	i	-10.6	-0.5	-11.6
Cc1c(C(=O)NCc2cccc(Cl)c2)sc(=O)n1Cc1cccc(F)c1	7.4	0.5	.	-15.7	.	.	.	-11.6
CC(O)CN(C)CC/C=C1/c2ccccc2CSc2ccccc21 (configuration not stated)	-0.9	7.7	7.3	.	i	19.2	-3.1	.
CN(Cc1ccco1)C(=O)c1cccc(S(=O)(=O)N2CCN(Cc3ccccc3)CC2)c1	1.4	0.7	.	3.2	.	.	.	-14.5
CCOP(=O)(NC(c1ccccc1)c1nc2ccccc2[nH]c1=O)OCC (configuration not stated)	-1.8	1.8	-8.0	-11.4	i	-16.1	-11.1	21.3
COC(=O)c1ccccc1NC(=S)N(Cc1ccc2c(c1)OCO2)Cc1cc2cc(OC)ccc2[nH]c1=O	-8.6	-7.8	9.3	-14.4	i	-3.9	4.3	-20.5
O=[N+]([O-])c1ccccc1/C=N/NC1=NS(=O)(=O)c2ccccc21	-2.6	5.4	.	.	i	3.1	-6.2	-6.4
Cc1ccc(NC(=O)C(OC(=O)c2ccccc2Cl)c2ccccc2)cc1Cl (configuration not stated)	-2.4	-9.3	-1.2	-9.9	i	-8.0	-6.1	-108.1
Cc1cccc(NC(=O)CN(C)S(=O)(=O)c2cnc[nH]2)c1	2.2	1.1	-7.1	-11.0	i	-6.4	-9.8	.
CC(=O)c1cccc(CN2CCC(CO)(CCOc3ccccc3)CC2)c1	-2.1	-2.9	19.0	-5.1	i	-1.8	0.6	2.5
CC(=O)C1=C(C)NC(C)=C(C(C)=O)C1c1cccs1	11.5	1.7	-14.5	3.7	i	-3.7	-6.8	.
COc1cc(/C=C/C(=O)OCC(=O)NC(=O)NC2CCCCC2C)ccc1OC(F)F (configuration not stated)	0.4	0.2	.	-18.4	.	.	.	-7.5
Cc1ccsc1/C=N/Nc1ncc(Cl)cc1Cl	5.5	-11.6	35.1	-5.5	i	-6.9	-5.4	.
O=[N+]([O-])c1ccc(N2CCN(C(=S)Nc3ccc(F)cc3)CC2)cc1	-2.0	-16.3	16.2	-9.5	i	2.1	0.7	16.0
COc1ccc(C(=O)Nc2ccc(C(=O)NCCc3ccccc3)cc2)cc1	5.7	0.1	-4.2	.	i	2.5	35.5	11.9
